High-throughput results: PubChem, National Center for Advancing Translational Sciences (NCATS)
PMP22 txn: Cell-based coincidence reporter assay to measure PMP22 gene transcription in S16 Pmp22-F2sN cells - Primary screen; S16 Pmp22-F2sN Schwann cells (luciferase reporters placed in the Pmp22 gene), FLuc/NLuc coincidence luminescence, 24 h; Potency, µM (top dose mostly 57.5 µM), for the others: top-dose activity change, negative = inhibition, usual class: inhibitors; 43,000 compounds, 2% hits; AID 1508649, 2021; active = clear falling dose curves in both reporters; inconclusive = both reporters move, but less clearly or upward; inactive = either reporter flat; the % is the NLuc reporter signal; further: on the % scale 0 is the no-effect control and ±100 the full control effect; some results filed as inactive show a strong effect at the top dose
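S16 Schwann cells carrying FLuc/NLuc coincidence reporter in the Pmp22 3' UTR treated with compound 24 h at 37C; FLuc then NLuc luminescence read sequentially by dual-luciferase reagents.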
HTT promoter inh: Primary qHTS for Identification of Small Molecule Inhibitors of Huntingtin Promoter Activity. HEK293 HTT promoter firefly luciferase reporter (activity 0% = vehicle and -100% = no light), 24 h. Potency, µM (top dose mostly 57.5 µM), inactives show at the top dose activity change, negative = inhibition, usual class: inhibitors. 48,000 compounds, 0.93% hits. AID 1508623, 2021; active means well fitted inhibition curve with a large enough effect; inconclusive means small, poorly fitted or top-dose-only effect; inactive means no such curve, though single readings can be large or run the other way; further: nearly all actives have a fitted effect of over 50% in size
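Luminescence was read after Dual-Glo reagent and a 10 min room-temperature incubation. Values were normalized to vehicle (0% activity) and zero RLU (-100% activity). Reporter HEK293 cells had been exposed to compounds (up to 57.5 uM final) for 24 h.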
The depositor's hits bear a star; ? = inconclusive; · = not tested or not shown; & = joins results of further samples; [ ] = dose if it differs, or a comment. Potency means the concentration at half of the fitted maximal effect.

Order of values: PMP22 txn | HTT promoter inh
Cc1cc(-c2ccc(C)c(S(=O)(=O)Nc3cccc(C)n3)c2)on1
  -1% | ?
CCS(=O)(=O)c1nc(S(=O)(=O)c2ccc(C)cc2)c(NCC(C)C)s1
  9% | -18%
CCn1ccc2cc(S(=O)(=O)N3CCCN(C(=O)NCCOC)CC3)ccc21
  -18% | -27%
COc1ccc(-n2cc(C(=O)N(C)c3cc(C)ccc3OC)c3ccccc3c2=O)cc1
  -23% | -18%
CCOc1ccccc1NC(=O)C(C)n1nnc2sc3c(c2c1=O)CCCC3 (centres undefined)
  -5% | 4%
Cc1cc(C)c2c(CC(=O)Nc3nnc(C(C)C)s3)coc2c1
  -15% | 3%
CC(C)(C)C1CCc2c(sc(NC(=O)c3ccc(Cl)cc3)c2C(=O)NCc2ccco2)C1 (centres undefined)
  -4% | -12%
Cc1ccc(CNC(=O)CN2CCCN(Cc3ccc(F)cc3)S2(=O)=O)cc1
  25% | -20%
COc1cc(C(=O)N(CCCN(C)C)c2nc3c(OC)cccc3s2)cc(OC)c1OC
  ? | 2%
CCc1ccc(NC(=O)C2CCC(CNS(=O)(=O)c3cccs3)CC2)cc1 (centres undefined)
  4% | 11%

Order of values: PMP22 txn | HTT promoter inh
CC(=O)Nc1cccc(-c2nnc(SCC(=O)c3cc([N+](=O)[O-])ccc3Br)o2)c1
  12µM* | 0%
CCOc1ccc(NC(=O)CN2CCN(Cc3ccccc3)S2(=O)=O)cc1
  ? | -14%
Fc1ccc(Nc2ncnc3onc(-c4ccc(Cl)cc4)c23)cc1Cl
  -29% | ?
Cc1cccc(NS(=O)(=O)c2ccc3c(c2)CCN3C(=O)C2CCC2)c1
  ? | 20µM*
C=Cc1ccc(CSc2nc(-c3ccccc3Cl)nc3c2Cc2c(CO)cnc(C)c2O3)cc1
  ? | ?
Cc1ccccc1-n1nc(CO)c(C(=O)NCc2cccnc2)n1
  -1% | -6%
O=C(NCc1ccc(F)cc1)c1ccc2c(Cl)c3c(nc2c1)CCCC3
  ? | -19%
Cc1ccc(-n2nnnc2CNC(=O)c2ccccc2C)cc1C
  -29% | 1%
CC1Cc2cc(S(=O)(=O)NCc3ccc(F)cc3)ccc2N1C(=O)C1CCC1 (centres undefined)
  ? | ?
Cc1ccc(N2CC(c3nnc(Cc4ccc(F)cc4)o3)CC2=O)cc1 (centres undefined)
  -8% | -12%

Order of values: PMP22 txn | HTT promoter inh
CC(C)(C#N)c1cc(Cn2cncn2)cc(C(C)(C)C#N)c1
  · | -5%&12%
COc1ccc(CN(C(=O)c2cc3ccccc3oc2=O)C2CCS(=O)(=O)C2)cc1 (centres undefined)
  23% | 8%
COc1ccc2oc(=O)c(-c3nnc(-c4ccc(C)cc4)o3)cc2c1
  3% | -14%
Cn1ccc2cc(S(=O)(=O)N3CCCN(C(=O)Nc4ccccc4Br)CC3)ccc21
  7% | -34%
CC(C)Oc1ccc(-c2nc3c(C#N)c[nH]n3c2NC2CCCCC2)cc1
  ? | 12%
CCc1ccc2occ(CC(=O)Nc3ccc(OC)c(Cl)c3)c2c1
  -53% | -16%
Cc1cc(SCC(=O)Nc2ccc(C(F)(F)F)cc2)nc(=O)[nH]1
  ? | ?
CC1CCN(S(=O)(=O)c2ccc3c(c2)N(CC(=O)NCCCN2CCCC(C)C2)C(=O)CS3)CC1 (centres undefined)
  -20% | -9%
COc1ccc(-c2cc3nc(C)c(CCC(=O)Nc4cccc(C(F)(F)F)c4)c(C)n3n2)c(OC)c1
  -5% | -23%
COc1ccc(CNC(=O)CCC2N=C3c4ccccc4N=C(SCc4cccc(F)c4)N3C2=O)cc1 (centres undefined)
  -30% | -19%

Order of values: PMP22 txn | HTT promoter inh
Cc1ccc(-c2ccc(=O)n(CC(=O)Nc3cccc(C#N)c3)n2)cc1
  13% | -6%
Cc1cc(=O)n(CC(=O)NCc2ccc(OC(C)C)cc2)c2c1c(C)nn2-c1cccc(F)c1
  ? | -17%
Cc1cccc(C)c1NC(=O)CSc1nccn1C
  5% | -16%
CN(C)CCOc1cc(-c2cn[nH]c2)ccc1NC(=O)C1COc2ccccc2O1 (centres undefined)
  · | -19%
COc1ccc(-c2c3c(=O)n(C)c(=O)n(C)c3c3c(-c4ccc(C)cc4)nc4ccccc4n23)cc1
  -10% | -6%[11.5 µM]
COC(=O)c1sccc1S(=O)(=O)N(CC(=O)NCc1ccc(C)cc1)c1ccccc1
  -103% | -12%
CCn1c(=O)cc(OCC(=O)Nc2ccccc2Cl)c2ccccc21
  -4% | -18%
COc1ccc(Br)cc1CNC(=O)C1CCN(c2nnc(-n3cccc3CNc3ccc(C)cc3)s2)CC1
  -26% | -31%
COc1cccc2c1Oc1ncccc1N(C(=O)CCC(=O)NCc1ccccc1Cl)C2
  0% | -11%
CCC(=O)N1CCc2cc(S(=O)(=O)NC(Cc3ccccc3)C(=O)NCc3ccc(F)cc3)ccc21 (centres undefined)
  6% | -15%

Order of values: PMP22 txn | HTT promoter inh
COc1ccc(CC(=O)NCc2ccc3c(c2)CCN3C(=O)c2cccc(C)c2)cc1
  ? | ?
Cc1ccc(CCNC(=O)Cn2nc(C)c3c(C)n(-c4ccc(C)cc4)nc3c2=O)cc1
  ? | ?
CCc1ccc(NC(=O)C2CCN(c3nn4cc(-c5ccc(OC)cc5)nc4s3)CC2)cc1
  -30% | 7%
COc1ccccc1CNS(=O)(=O)c1ccc2c(c1)CC(=O)N2C
  -20% | -12%
O=C(CN1CCCN(Cc2ccc(Cl)cc2)S1(=O)=O)Nc1ccccc1F
  -7% | 3%
CCOc1ccc(NC(=O)c2cnc(N3CCCC3)nc2C)cc1
  5% | -11%
COc1cccc(NC(=O)CSc2nnc3[nH]c(=O)cc(-c4ccccc4)n23)c1
  -89% | 12%
CC(=O)NCCNc1nc2c(-c3cccc(C)c3)nnn2c2ccc(Cl)cc12
  0% | 3%
Cc1ccccc1CNC(=O)C(=O)NCC(c1ccc2c(c1)OCO2)N1CCOCC1 (centres undefined)
  -3% | -15%
Cn1cc(S(=O)(=O)c2ccccc2)c(=O)c2cc(F)c(N3CCCCC3)cc21
  ? | -28%

The list goes on, overlapping the part above by two compounds.
compound,PMP22 txn,HTT promoter inh
Cc1ccccc1CNC(=O)C(=O)NCC(c1ccc2c(c1)OCO2)N1CCOCC1 (centres undefined),-3%,-15%
Cn1cc(S(=O)(=O)c2ccccc2)c(=O)c2cc(F)c(N3CCCCC3)cc21,?,-28%
CCc1ccc(NC(=O)C(=O)NCCc2sc(-c3ccc(OC)c(OC)c3)nc2C)cc1,-4%,4%
O=C(Cc1cccc([N+](=O)[O-])c1)NCc1nc2cccnc2n1Cc1ccc(F)cc1,?,-20%
CSc1ncc(Cl)c(C(=O)Nc2ccc(S(=O)(=O)N3CCC(C)CC3)cc2)n1,?,?
CCOc1ccc(NC(=O)CCS(=O)(=O)c2ccc3c(c2)n(C)c(=O)c(=O)n3C)cc1,-12%,-18%
Cc1ccc2cccc(NC(=O)C(C)Oc3ccc(Cl)cc3Cl)c2n1 (centres undefined),-20%,-22%
COc1ccc(-c2cnc(C)o2)cc1S(=O)(=O)Nc1ccc(NC(C)=O)cc1,-18%,-6%
CCC(=O)N1CCc2cc(CNS(=O)(=O)c3ccc(Br)s3)ccc21,-48%,-16%
CC(=O)c1ccc(N2CCN(C(=O)CCCn3c(=O)[nH]c4ccsc4c3=O)CC2)cc1,20%,10%
Cc1c(NC(=O)Cc2ccc(Cl)cc2)cccc1-c1nc2cccnc2s1,-32%,1%
Cc1cc(C)c(/C=C/c2onc(C)c2S(=O)(=O)N2CCC(C(=O)N3CCN(c4ccccc4)CC3)CC2)c(C)c1,?,-15%
Cc1ccn2c(Nc3ccc4c(c3)OCCO4)c(-c3ccc(C)o3)nc2c1,-5%,39%[activator]
Cc1nn(CCCC(=O)Nc2ccccc2C(F)(F)F)c(=O)c2nn(-c3ccccc3)c(C)c12,-13%,-27%
CC(=O)Nc1ccc(NC(=O)Cn2nc(C(=O)Nc3ccc(C)cc3)ccc2=O)cc1,16%,6%
Cc1coc2c(C)c3oc(=O)c(CCC(=O)N4CCCCC4)c(C)c3cc12,?,-23%
O=C(Nc1ccc(OC(F)(F)F)cc1)NC1COc2ccccc2C1 (centres undefined),-14%,-7%

compound,PMP22 txn,HTT promoter inh
COc1ccc(-c2c(C)nn3c(N4CCN(c5ccccc5F)CC4)cc(C)nc23)cc1OC,-11%,-9%
COc1cccc(CNC(=O)Cn2c(=O)nc(-c3ccccc3F)c3cc(Cl)ccc32)c1,-1%,-4%
CCn1c(=O)cc(SCC(=O)NCc2ccc(C)cc2)c2ccccc21,6%,-7%
COc1cccc(NC(CNS(=O)(=O)c2ccc(C)cc2)c2ccccc2)c1 (centres undefined),?,?
CCOc1ccc(Nc2ncnc3c2nc2n3CCCCC2)cc1,-24%,?
O=C(Nc1cccc(F)c1)[C@H](CSCc1ccccc1)N1Cc2ccccc2C1=O,-6%,?
CC(C)CCNC(=O)c1cc(-c2cccnc2)nc2ccc(S(=O)(=O)N3CCC(C)CC3)cc12,-28%,-4%
COC(=O)c1cc(NC(=O)CN(c2ccccc2)S(=O)(=O)N(C)C)ccc1Cl,-28%,?
Cc1ccccc1NC(=O)Cn1c(=O)n(CCc2ccccc2)c(=O)c2sc3ccccc3c21,-58%,-2%
CC(=O)Nc1ccc(-c2nnc(SCC(=O)c3ccc([N+](=O)[O-])cc3)o2)cc1,-2%,-15%
CSc1ccc(CCNC(=O)CN2C(=O)c3cccnc3Oc3ccc(Cl)cc32)cc1,-14%,-13%
COc1cc(C2c3c(-c4ccc(C)cc4)n[nH]c3C(=O)N2c2ccc(F)cc2)ccc1O (centres undefined),?,?
CCOC(=O)c1c(C)oc2nc(C)nc(NCc3ccc(OC)cc3OC)c12,?,-2%
CCc1nnc(NC(=O)CSc2nccn2-c2ccc(OC)cc2)s1,-9%,?
CN(C(=O)c1ccc(F)cc1C(F)(F)F)C1CCN(c2nnc(-c3ccnn3C)c3ccccc23)CC1,·,?

compound,PMP22 txn,HTT promoter inh
CCc1ccc2ncc3c(-c4ccc(C)cc4)nn(CC(=O)Nc4ccc(C)cc4)c3c2c1,10%,12%
CC1CCN(C(=O)c2cc3c(=O)n(C)c4cc(Cl)ccc4c3s2)CC1,-6%,4%
O=C(c1ccc(C(F)(F)F)cc1)N1CCC(c2nc(-c3ccc(S(=O)(=O)N4CCCC4)cc3)no2)CC1,14µM*,?
CC(NC(=O)Cn1ccc2cc(S(=O)(=O)N3CCCCCC3)ccc21)c1ccccc1 (centres undefined),?,-21%
COc1ccc(NC(=O)Nc2nnc(N3CCCCCC3)s2)cc1,-41%,?
Cc1ccc2nc(-c3ccc(Cl)cc3)cc(C(=O)OCC(=O)c3ccccc3)c2c1,?,-14%
CN1CC(=O)N(CC(=O)Nc2ccc(OC(F)(F)F)cc2)c2ccccc2C1=O,6%,-1%
Cc1cc(NC(=O)Nc2nnc(N3CCCCC3)s2)ccc1Br,-37%,1%
Cc1nc2nc(C)c(CCC(=O)NCCc3ccccc3)c(C)n2n1,-19%,3%
Cc1cccc2c1-c1sc(C(=O)NCCc3ccc(Cl)cc3)cc1CO2,?,?
COC(=O)c1ccc(OCC2c3cc(OC)c(OC)cc3CCN2C(=O)Cc2ccccc2)cc1 (centres undefined),-97%,-28%
Cc1ccccc1-c1nc2cc(NC(=O)COc3ccc(F)cc3)ccc2o1,2%,77%[activator]
CC(C)Oc1ccc(CNC(=O)c2ccc3nc(C(C)C)oc3c2)cc1,-6%,-3%
Cc1ccc(Cl)cc1NC(=O)CSc1nc2ccccc2nc1Cc1ccccc1,?,-2%
O=C(CCCCCn1c(=O)c2sccc2n(CC(=O)Nc2cc(C(F)(F)F)ccc2Cl)c1=O)NCc1ccccc1Cl,?,-25%

compound,PMP22 txn,HTT promoter inh
Clc1cccc(N2CCN(c3nc4ccccc4n4nnnc34)CC2)c1,-11%,-8%
Cc1ccc(-c2nc3ccccc3[nH]2)cc1NC(=O)COc1ccc(Cl)cc1Cl,0%,?
O=C(NC1CC(=O)N(c2ccccc2)C1)c1cccs1 (centres undefined),21%,-20%
CCC(=O)OCc1cnc(C)c2oc(=O)c(C(=O)Nc3ccc(CC)cc3)cc12,-53%,13%
CCCc1cnc2c(c1SCC(=O)Nc1cccc(C)c1C)c(=O)n(C)c(=O)n2C,15%,-3%
Cc1ccc(CCNC(=O)Cn2ncc3c([nH]c4ccc(C)cc43)c2=O)cc1,8%,0%
Cc1nn(C(=O)c2ccccc2F)c(C)c1S(=O)(=O)N1CCCCCC1,-7%,-7%
Cc1ccc2nc(SC(Cc3cc(Cl)ccc3Cl)C(=O)O)[nH]c2c1 (centres undefined),-6%,-1%

Looked up by structure from the entries so far, four records:
compound,PMP22 txn,HTT promoter inh
COc1ccc(-n2cc(C(=O)N(C)c3cc(C)ccc3OC)c3ccccc3c2=O)cc1,-23%,-18%
CCC(=O)N1CCc2cc(S(=O)(=O)NC(Cc3ccccc3)C(=O)NCc3ccc(F)cc3)ccc21 (centres undefined),6%,-15%
CCc1ccc(NC(=O)C2CCN(c3nn4cc(-c5ccc(OC)cc5)nc4s3)CC2)cc1,-30%,7%
COc1ccc(-c2cc3nc(C)c(CCC(=O)Nc4cccc(C(F)(F)F)c4)c(C)n3n2)c(OC)c1,-5%,-23%
